GIV-Gai inh: blocks GIV peptide binding to rat Galpha-i3. P08753. Galpha-i3/FITC-GIV peptide fluorescence polarization, 90 min; hits give low values; scaled: aluminum fluoride 0%, vehicle 100%. percent of control (FP), % (concentration not given with the values). hit rate 0.42% among 210,000;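 active means replicate mean at 85% of control or lower, very high polarization wells dropped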;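 further: wells of about 15 µL received 100 nL stock; the first replicate is given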
Target sequence (P08753 whole entry, looked up): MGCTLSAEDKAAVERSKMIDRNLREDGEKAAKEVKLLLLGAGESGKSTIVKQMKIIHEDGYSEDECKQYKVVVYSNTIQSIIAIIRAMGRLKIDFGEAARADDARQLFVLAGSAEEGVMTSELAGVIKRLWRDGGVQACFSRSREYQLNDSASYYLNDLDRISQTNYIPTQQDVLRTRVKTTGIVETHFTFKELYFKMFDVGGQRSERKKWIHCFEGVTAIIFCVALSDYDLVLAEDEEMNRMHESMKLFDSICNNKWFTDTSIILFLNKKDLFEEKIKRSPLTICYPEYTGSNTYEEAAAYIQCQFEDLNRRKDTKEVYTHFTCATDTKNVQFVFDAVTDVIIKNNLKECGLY
Sa growth inh: inhibitors of Staphylococcus aureus growth at 42 °C; S. aureus RN4220 growth, OD600, 20 h; hits give low values; relative growth, % (test concentration not listed); hit rate 0.53% among 170,000;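 active means growth at 42 °C up to 50% and 20 or more points under that at 30 °C, or under 10% at both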;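 further: 300 nL library stock went into each well; scaled to the means of positive and negative controls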
HCMV NEC inh: cytomegalovirus nuclear egress complex inhibition; inhibition, % (no concentration beside the values); hit rate 0.15% among 190,000; HTRF UL50-UL53 interaction, normalized percent inhibition;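 active means both replicates at 50% or more, plus weaker picks with an unusually low signal ratio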;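 further: stock transfer was 100 nL into about 20 µL; 0% = negative control wells and 100% = wells with untagged competitor protein; inactives centre near -12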
Sa growth inh second temp: also measured in Sa growth inh; calls as there; relative growth, %; measured here: growth at 30 °C;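 optical density after 20 h as mean of two plates; 100% = untreated growth and lower means inhibition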
Starred values were filed as active, the others as inactive; nt = no result given; & = joins results of further samples. Not a hit list. About 0.8% of those tested had a hit in this group.

item	structure	Sa growth inh	Sa growth inh second temp	HCMV NEC inh	GIV-Gai inh
1	COCC(C)NS(=O)(=O)c1c(C)[nH]c(=O)[nH]c1=O (configuration not stated)	nt	nt	1.3	107.3
2	O=C(CSc1cccc[n+]1[O-])Nc1ccccc1C(F)(F)F	98.4	92.3	-15.9	nt
3	CCCN(Cc1nnc(-c2ccco2)o1)C(=O)/C=C/c1nc2ccccc2s1	99.1	87.0	-54.0	nt
4	O=C(NCCCn1c(-c2ccncc2)nc2cccnc21)Nc1ccc(Br)cc1	nt	nt	-15.4	109.5
5	CC1(C)CC2CC(C)(CN2C(=O)c2cc(-c3ccccc3)on2)C1 (configuration not stated)	92.0	100.5	7.9	108.3
6	CC1CCCN(S(=O)(=O)c2ccc(/C(O)=C(\C#N)c3nc4ccccc4n3C)cc2)C1 (configuration not stated)	98.6	78.5	-39.4	102.3
7	Cc1nc(Cc2nnc(SCC(=O)N3c4ccccc4NC(=O)C3(C)C)o2)cs1	98.4	94.8	-7.4	nt
8	Cn1nc(C(=O)N2CCC(c3ccccc3)C2)c2c1-c1ccccc1SC2 (configuration not stated)	nt	nt	-33.3	99.5
9	CC1=CC(C)C2(COC(=O)NC3CCCCC3)COC3(CCCC3)C1C2C (configuration not stated)	81.3	103.0	-8.0	nt
10	Cc1nc(SCC(=O)Nc2nsc(-c3ccc(C(C)(C)C)cc3)n2)c2c3c(sc2n1)CCCC3	105.7	107.3	0.5	107.0
11	Cc1cccc(C(=O)N2CCCc3ccccc32)c1	101.6	100.8	1.1	nt
12	O=C(NC1CCCC1)C1=Cc2ccccc2OC1	nt	nt	-56.3	102.7

More records follow:
item	structure	Sa growth inh	Sa growth inh second temp	HCMV NEC inh	GIV-Gai inh
13	CCNC(=O)/N=C1\NC(=O)C(C(C)C)O1 (configuration not stated)	86.3	88.0	-32.2	nt
14	Cc1ccc(CNc2nc3nc(C)c(CCC(=O)NC(C)C)c(=O)n3[nH]2)cc1	nt	nt	-18.0	98.1
15	CCCCNC(=O)c1ccc(CS(=O)(=O)c2cccc(C(F)(F)F)c2)o1	99.6	89.1	-10.7	108.9
16	CC(C)Nc1nc(N2CCCC2)nc(N2CCCC2)n1	106.0	90.7	1.9	109.8
17	Cn1nc(C(=O)NCc2ccc(Cl)cc2)c2c1-c1ccccc1S(=O)(=O)C2	112.1	78.2	-4.3	101.3
18	CCOc1ccc(NC(=O)c2nn(-c3ccccc3OC)c(=O)c3ccccc23)cc1	83.7	92.3	7.2	nt
19	CCOc1ccc(CNC(=O)CCn2c(=O)c3cccn3c3cccnc32)cc1	89.8	69.9	nt	105.2
20	Cc1ccc(C(=O)Nc2nc3n(n2)C(c2ccccc2)C=C(c2ccccc2)N3)cc1 (configuration not stated)	115.4	73.3	-33.6	144.6
21	CCOC(=O)C1(C)C=C(Nc2ccc(C)cc2)C(=O)N1c1ccccc1 (configuration not stated)	114.6	84.4	-13.6	106.8
22	COc1ccccc1OCCOc1c(Br)cc(C=C2C(=O)NC(=S)NC2=O)cc1OC	nt	nt	-7.1	96.9
23	N#CCCNCCN1CCOCC1	86.8	89.4	-14.6	nt
24	Nc1nc(N)nc(-c2ccccc2)n1	89.7	81.2	-12.3	98.4

The list continues:
item	structure	Sa growth inh	Sa growth inh second temp	HCMV NEC inh	GIV-Gai inh
25	CCc1ccc(NC(=O)[C@H](CSCc2ccccc2)N2Cc3ccccc3C2=O)cc1	98.8	94.5	-33.8	102.3
26	CCOc1cc(/C=C2\C(=O)NC(=O)N(c3ccc(Br)cc3)C2=O)ccc1OCC(=O)O	nt	nt	0.0	109.9
27	COCCn1c(COc2ccc(Cl)cc2)nnc1SCC(=O)OC	74.2	76.0	-18.0	99.6
28	CCOC(=O)Cc1sc(NC(C)=O)nc1-c1ccccc1	94.8	100.6	-6.9	nt
29	O=C(Cn1ncc(-c2ccccc2)nc1=O)Nc1ccc(F)c(Cl)c1	nt	nt	-19.6	105.0
30	CC1CCCN(C(=O)C2CCN(c3nc4cccnc4s3)CC2)C1 (configuration not stated)	nt	nt	-18.2	105.8
31	O=S1(=O)C[C@H](N2CCN(c3ccccc3F)CC2)[C@@H](S(=O)(=O)c2ccc(F)cc2)C1	nt	nt	-13.8	97.7
32	COC(=O)C1=CN(C(C)C)C=C(C(=O)OC)C1c1cccs1	91.4	80.5	-34.3	102.0
33	CC1Cc2ccccc2N1C(=O)C1CCN(S(=O)(=O)c2ccc(-n3cnnn3)cc2)CC1 (configuration not stated)	122.1	88.4	-15.7	101.2
34	CN1C(=O)C(=Cc2cc(Br)ccc2OCc2ccccc2)C(=O)N(C)C1=O	nt	nt	-3.4	105.4
35	COc1ccc(Nc2cc(C)c3cc(NC(=O)c4ccccc4C)ccc3n2)cc1	nt	nt	-1.1	112.4
36	CSC1=NCCN1C(=O)C(C)(C)Oc1ccc(Cl)cc1	94.8	89.7	-11.8	106.3

Reformatted: entries from further up.
35) COc1ccc(Nc2cc(C)c3cc(NC(=O)c4ccccc4C)ccc3n2)cc1
27) COCCn1c(COc2ccc(Cl)cc2)nnc1SCC(=O)OC

screen / no. | 35 | 27
Sa growth inh | nt | 74.2
Sa growth inh second temp | nt | 76.0
HCMV NEC inh | -1.1 | -18.0
GIV-Gai inh | 112.4 | 99.6

Next compounds
item	structure	Sa growth inh	Sa growth inh second temp	HCMV NEC inh	GIV-Gai inh
37	CCOC(=O)c1ccccc1NC(=O)COc1ccccc1-c1nnc(-c2ccccc2)o1	105.1	77.7	nt	98.5
38	CCCCc1ccc(CC(=O)O)cc1	88.4	88.4	nt	99.6
39	CCOC(=O)COc1ccc(F)cc1C(=O)c1ccn2nc(-c3ccc(C)cc3)cc2n1	101.5	91.0	-9.4&-12.7	108.6&95.2
40	COc1ccc(-c2nnc(N3CCCCC3)c3ccccc23)cc1	nt	nt	-26.8	105.3
41	Cc1onc(-c2ccccc2)c1C(=O)NC(C)C	86.0	94.7	-35.9	100.8
42	CCCCOc1ccc(S(=O)(=O)Nc2ccc(Nc3cc(N(C)C)nc(C)n3)cc2)cc1	nt	nt	-14.7	98.6
43	COC(=O)C1=C(C)N(c2ccc(C(C)C)cc2)C(=O)/C1=C\c1ccco1	106.0	105.5	nt	102.3
44	CC(=O)Nc1ccc(C2=N/C(=C/c3cc(Br)cs3)C(=O)O2)cc1	98.7	75.7	-12.6	92.7
45	Cc1cc(N2CCC(C)CC2)nc2ccc(NC(=O)CCC(=O)N3CCN(c4cccc(C(F)(F)F)c4)CC3)cc12	90.0	82.8	-19.7	109.7
46	O=C(NCC(c1ccco1)N1CCCC1)c1ccc(Cl)cc1 (configuration not stated)	86.3	83.8	-13.4	102.9
47	Fc1ccc(C(Nc2ccccc2Cl)c2nnc(-c3ccccc3Cl)o2)cc1 (configuration not stated)	122.1	87.1	-3.6	102.9
48	CCN(CC)CCCNC(=O)c1nn(-c2ccc(C)cc2)c(=O)c2c1c1ccccc1n2C	108.1	92.3	-55.8	104.0

The listing continues:
item	structure	Sa growth inh	Sa growth inh second temp	HCMV NEC inh	GIV-Gai inh
49	Clc1cccc(N2CCN(C3=Cc4ccccc4C3)CC2)c1	94.1	90.7	-19.9	104.2
50	O=C(Nc1nc2c(Cl)cccc2s1)c1ccc2ncsc2c1	97.3	95.8	-14.7	103.6
51	CC(=O)Nc1ccc(NC(=O)C(C)OC(=O)c2cc(C)oc2C)cc1 (configuration not stated)	99.8	98.8	-32.7	nt
52	CCC(C)Nc1sc(S(=O)(=O)CC)nc1S(=O)(=O)c1ccc(C)cc1 (configuration not stated)	100.2	89.3	-15.2	102.0
53	C=C(C)Cc1c(COC)nc(SCC2CC2)[nH]c1=O	105.3	74.0	2.4	100.3
54	COC(=O)N1CCc2cc(OC)c(OC)cc2C1c1ccc(OC)c(OC)c1 (configuration not stated)	102.1	94.3	2.1	100.5
55	O=C(Nc1ccc(Br)cc1F)N1CCN(Cc2ccc3nccnc3c2)CC1	nt	nt	-82.0	98.6
56	Cc1ccccc1Nc1c(-c2ccc(N3CCOCC3)cc2)nc2c(C)cccn12	nt	nt	-8.1	100.1
57	COc1ccc(CCNC(=O)CSc2nc(N)c3c4c(sc3n2)CCC4)cc1OC	nt	nt	2.7	103.0
58	Cc1ccc(NC(=O)N2CCN3CCCCC3C2)cc1C (configuration not stated)	99.0	87.2	-8.5	101.2&99.8
59	CCN(CC)P(=NC(=S)N1CCCC1)(c1ccccc1)N(CC)CC	52.6	53.9	-16.9	nt
60	CC[C@H]1OC(=O)[C@H](C)C(O[C@H]2C[C@@](C)(OC)[C@@H](O)[C@H](C)O2)[C@H](C)[C@@H](OC2O[C@H](C)C[C@H](N(C)C)[C@H]2O)[C@](C)(O)C[C@@H](C)CN(C)[C@H](C)[C@@H](O)[C@]1(C)O (some centres not stated)	nt	nt	1.4	107.2

(more compounds)
item	structure	Sa growth inh	Sa growth inh second temp	HCMV NEC inh	GIV-Gai inh
61	CC(C)N1CCCc2cc(CN)ccc21	98.2	59.1	25.9	nt
62	Cc1cccc(C(=O)Nc2nc3c(s2)CCCC3)c1	83.4	66.0	-2.1	100.2
63	Cc1ccc(S(=O)(=O)CCSc2sc(C#N)c3c2C(=O)CC(C)(C)C3)cc1	99.7	88.2	-33.6	98.5
64	CCn1c(=O)c(C(=O)CSc2nnc(NC3CC3)s2)c(N)n(Cc2ccccc2)c1=O	104.8	97.5	-13.1	nt
65	C/C=C/c1ccc(Oc2nnc(C)c3ccccc23)c(OC)c1	89.0	77.4	-10.7	nt
66	CCOC(=O)c1[nH]c(C)c(C(=O)N2CCc3ccccc3C2)c1C	104.0	79.6	-6.2	108.0
67	Cc1cc2c(cc3c(SCc4cccc(Cl)c4)nnc(C)n32)o1	95.5	87.8	nt	103.8
68	CCc1ccc2[nH]cc(S(=O)(=O)c3ccc(C(C)C)cc3)c(=O)c2c1	90.4	83.4	-12.7	98.3
69	CNC(=O)c1ccc2nc(Cc3ccccc3)oc2c1	99.0	89.3	nt	102.0
70	O=C(Nc1ccc(Oc2ccccc2)cc1)C1CCN(S(=O)(=O)c2ccc(Cl)cc2)CC1	80.3	85.0	-34.5	109.0
71	COc1ccc(CSC(=N)N)cc1Cl	105.8	82.1	-18.7	100.0
72	CC(C)n1nnc(CC(=O)NN)n1	100.8	89.8	nt	106.6

Molecules listed so far containing a cyano group (three):
item	structure	Sa growth inh	Sa growth inh second temp	HCMV NEC inh	GIV-Gai inh
6	CC1CCCN(S(=O)(=O)c2ccc(/C(O)=C(\C#N)c3nc4ccccc4n3C)cc2)C1 (configuration not stated)	98.6	78.5	-39.4	102.3
23	N#CCCNCCN1CCOCC1	86.8	89.4	-14.6	nt
63	Cc1ccc(S(=O)(=O)CCSc2sc(C#N)c3c2C(=O)CC(C)(C)C3)cc1	99.7	88.2	-33.6	98.5

From entry 1 to 2, as listed above:
item	structure	Sa growth inh	Sa growth inh second temp	HCMV NEC inh	GIV-Gai inh
1	COCC(C)NS(=O)(=O)c1c(C)[nH]c(=O)[nH]c1=O (configuration not stated)	nt	nt	1.3	107.3
2	O=C(CSc1cccc[n+]1[O-])Nc1ccccc1C(F)(F)F	98.4	92.3	-15.9	nt

Next section
item	structure	Sa growth inh	Sa growth inh second temp	HCMV NEC inh	GIV-Gai inh
73	N#CC(C#N)=C1N=NNN1c1ccccc1	97.9	92.1	-6.0	nt
74	CC(C(=O)O)C(C(=O)O)C(C)c1ccccc1 (configuration not stated)	99.0	84.2	-10.8	97.8
75	NC(=S)NC(=O)/C=C/c1ccccc1	109.6	92.5	nt	101.6
76	COc1ccc(/C=c2/[nH]/c(=C/C(=O)c3ccccc3)c(=O)[nH]c2=O)cc1OC	83.5	30.1	-27.7	nt
77	COc1cc2c(cc1OC)CN(C(=O)/C=C/c1ccc(F)cc1)CC2	86.1	76.8	-38.7	nt
78	Nc1nc(N)c2[nH]c(C3CCCCC3)nc2n1	86.3	37.1	0.9	nt
79	O=C(CN1CCOCC1)Nc1scc2c1c(=O)oc1ccccc12	97.1	95.3	-6.0	104.4
80	CS(=O)(=O)n1c(=O)sc2ccccc21	104.0	81.3	-7.1	99.2
81	CC1CC(C)CN(C(=O)CSc2nc3ccsc3c(=O)n2Cc2ccccn2)C1 (configuration not stated)	102.5	90.0	-9.0	105.7
82	CCc1nc2sc3c(c2c(=O)[nH]1)CCCC3	120.8	90.7	-3.2	nt
83	Cc1cc(=O)n(Cc2c(F)cccc2Cl)c2c1c(C)nn2-c1cccc(F)c1	98.9	95.6	nt	103.5
84	CC1=Nc2ccccc2N=C(NC(=O)CSc2nnc(C)s2)C1c1ccccc1 (configuration not stated)	nt	nt	-5.9	100.7
85	Cc1ccc(NC(=O)N2CCN(c3nnc(C)c4c(C)n(-c5ccccc5)nc34)CC2)cc1Cl	107.0	83.8	15.6	103.8&108.1

High-throughput results: PubChem, ICCB-Longwood Screening Facility, Harvard Medical School
